# Screening results from PubChem.
# BJeLR viab HTS: BJeLR cell viability reduction. BJeLR fibroblasts viability, CellTiterGlo ATP luminescence, 48 h; HRASV12, hTERT and SV40 LT/ST transformed. viability loss activity score, % (no concentration beside the values). 0.64% of 30,000 active. AID 2275; in the data active means viability loss activity score above about 50%; about a fifth of its hits are not listed in these tables;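 further: higher score means fewer live cells and less ATP luminescence; stock transfer was 50 or 100 nL into about 30 µL; 0% = vehicle wells and 100% = a reference killing control; one replicate is shown; the record names a cut of 85%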
# A1 inh: A1 inhibition. MEF A1-2A-BIM cells, caspase-Glo luminescence, 3 h; percent of clofoctol signal, DMSO as zero. caspase activation, % (no concentration beside the values). 0.51% of 21,000 active. AID 2241;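 active means most replicate scores above 10, or exactly half above 10 with mean activity above 10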;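 further: effector caspase 3 and 7 activity cleaving a DEVD luciferin substrate; 50 nL library stock added to about 30 µL; numbers are from one replicate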
# Numbers without * were called inactive; nt = no result given. Not all compounds are listed; count on the stated rates, not on these rows.
SMILES | BJeLR viab HTS | A1 inh
CCc1ccc(Oc2coc3cc(OC(=O)c4cccs4)ccc3c2=O)cc1 | 5.7 | -0.7
CC1(C)CC(=O)C(C=NCc2ccc(F)cc2)=C(O)C1 | -3.1 | -0.4
Cc1cc(C)c(C#N)c(SCCN2CCCCC2)n1 | 4.0 | 0.5
C[C@H]1CN([C@@H](C)CO)C(=O)c2cccc(NS(=O)(=O)c3cccs3)c2O[C@H]1CN(C)Cc1ccc(C(F)(F)F)cc1 | 0.7 | nt
CCOC(=O)c1c(-c2ccccc2)c2cc(Cl)ccc2[nH]c1=O | 5.1 | 0.4
C=C1C(=O)O[C@H]2[C@H]1[C@@H](OC(=O)/C(C)=C/C)C(OC(C)=O)/C(C(=O)OC)=C\CC[C@@]1(C)O[C@H]21 (stereo not given in full) | 61* | 1.6
Cc1noc(C)c1NC(=O)Nc1ccc2c(c1)C(=O)N([C@H](C)CO)C[C@@H](C)[C@@H](CN(C)Cc1ccccc1)O2 | 5.5 | 0.2
C[C@@H]1CN([C@@H](C)CO)C(=O)c2cc(N(C)C)ccc2O[C@H]1CN(C)Cc1ccc(C(=O)O)cc1 | -1.1 | -0.6
CCOC(=O)c1cnc2c(ccc3ccccc32)c1NCC(C)C | -3.3 | -0.5
COc1ccc2oc(C)c(C(=O)CSc3ccccc3)c2c1 | 3.3 | -0.9
C[C@H](CO)N1C[C@H](C)[C@H](CN(C)C(=O)Nc2ccccc2)Oc2c(NC(=O)Nc3ccccc3)cccc2C1=O | -1.7 | nt
O=C(CN(C1CCCCC1)S(=O)(=O)c1ccc(F)cc1)NCC1CCCO1 (stereo not given) | 5.0 | 0.4
COC1OC(OC)C(O)(CC[C@@]2(O)[C@H](C)C[C@@H](O)C3[C@@](C)(CO)CCC[C@]32C)C1O (stereo not given in full) | 1.0 | 1.0
C=CCSc1n[nH]c(=O)n1-c1cccc(Cl)c1 | 2.3 | -0.3
CC1(C)CC(=O)C2=C(C1)N(c1ncn[nH]1)C(N)=C(C#N)C2c1ccsc1 (stereo not given) | -2.5 | 1.2
CC1(C)CC(=O)C(C=NC(CO)(CO)CO)=C(O)C1 | -3.6 | 0.3
O/N=C/c1c(F)cccc1F | 4.9 | -0.8
C[C@H]1CN([C@@H](C)CO)C(=O)c2cc(NC(=O)Cc3ccccc3)ccc2O[C@H]1CN(C)CC1CC1 | -2.2 | -0.5
C[C@@H]1CN([C@H](C)CO)C(=O)c2cccc(NC(=O)c3ccc(-c4nccs4)cc3)c2O[C@H]1CN(C)C(=O)Nc1ccc2c(c1)OCO2 | 1.5 | nt
CN(C)CCC(c1ccccc1)c1ccccn1 (stereo not given) | 1.3 | 0.1
COc1ccc(NC(=O)N(C)C[C@H]2Oc3ccc(NC(=O)Nc4cccc5ccccc45)cc3C(=O)N([C@H](C)CO)C[C@@H]2C)cc1 | 1.5 | -0.1
CCC(=O)c1ccc2c(c1)N(CC(C)N(C)C)c1ccccc1S2 (stereo not given) | -3.4 | 0.9
COc1cc(C2c3c(cc(OC)c(O)c3OC)CC(CO)C2COC2OCC(O)C(O)C2O)cc(OC)c1O (stereo not given) | 1.2 | 0.3
Cc1ccc(S(=O)(=O)N(C)C[C@H]2Oc3c(NS(=O)(=O)c4ccccc4)cccc3C(=O)N([C@@H](C)CO)C[C@H]2C)cc1 | -5.0 | nt
O=C(CSc1nnc(Cc2cc(=O)[nH]c(=O)[nH]2)n1-c1ccc(Cl)cc1)N1CCCCC1 | 4.3 | nt
C[C@H]1CN([C@@H](C)CO)C(=O)c2cccc(NS(=O)(=O)c3cn(C)cn3)c2O[C@H]1CN(C)S(=O)(=O)c1ccc(F)cc1 | 2.9 | nt
CC1(C)CC[C@@]2(C(=O)O[C@@H]3O[C@H](CO)[C@@H](O)[C@H](O)[C@H]3O)C(C1)C1=CCC3[C@@]4(C)CC[C@@H](O[C@@H]5O[C@H](CO)[C@@H](O)[C@H](O)[C@H]5O[C@@H]5O[C@H](CO)[C@@H](O)[C@H](O)[C@H]5O)C(C)(C)C4CC[C@@]3(C)[C@]1(C)C[C@H]2O (stereo not given in full) | -4.1 | -0.4
CCn1c(-c2ccccc2)n[nH]c1=S | -0.8 | -0.6
Cn1cccc1Cc1nnc(SCC(=O)NCc2ccco2)n1CCc1ccccc1 | 4.0 | -0.5
COc1ccc(-c2oc3c(OC)c(OC)c(OC)c(O)c3c(=O)c2OC)cc1OC | 5.6 | -0.2
C[C@@H]1CN([C@H](C)CO)C(=O)c2cc(NC(=O)Nc3ccc(F)cc3)ccc2O[C@@H]1CN(C)S(=O)(=O)c1cccs1 | 14 | 0.4
Cc1cc2cc(CNC(=O)C34CC5CC(CC(C5)C3)C4)ccc2n1C | -0.4 | nt
C[C@@H]1CN([C@H](C)CO)C(=O)c2cc(NS(=O)(=O)c3cn(C)cn3)ccc2O[C@H]1CN(C)C(=O)NC1CCCCC1 | 3.9 | 0.4
O=C(Nc1cccc(C(F)(F)F)c1)/C(=C\c1cccs1)c1ccsc1 | 0.4 | -0.6
CC(C)NC(=O)N(C)C[C@@H]1Oc2ccc(NS(=O)(=O)c3cccs3)cc2C(=O)N([C@H](C)CO)C[C@@H]1C | -0.4 | 0.5
C[C@@H]1CN([C@@H](C)CO)C(=O)c2cccc(N(C)C)c2O[C@@H]1CN(C)C(=O)Nc1ccccc1 | -9.6 | nt
CC(C)(C)OC(=O)N1CCC(c2cc(=O)n3[nH]cc(C(=O)Nc4ccc(F)c(Cl)c4)c3n2)CC1 | -0.5 | nt
C[C@H](CO)N1C[C@H](C)[C@H](CN(C)Cc2ccc(Oc3ccccc3)cc2)Oc2c(NS(=O)(=O)c3ccc(F)cc3)cccc2C1=O | -0.6 | nt
C[C@H]1CN([C@@H](C)CO)C(=O)c2cccc(NC(=O)c3nc4ccccc4s3)c2O[C@@H]1CN(C)Cc1ccccc1 | -5.4 | nt
CC(C)C(=O)N1N=C(c2ccccc2)CC1(O)C(F)(F)F (stereo not given) | -7.5 | -0.7
O=C1c2c(O)cc(O)cc2O[C@H](c2ccccc2)[C@H]1O | 6.9 | 0.0
CCOC(=O)c1c(CS(=O)c2ccc(Cl)cc2)oc2c(F)c(F)c(F)c(F)c12 (stereo not given) | -4.7 | 0.3
O=C(c1ccccc1)N1CCc2c([nH]c3ccccc23)C1c1ccccc1 (stereo not given) | 4.0 | -0.1
Cc1ccc(S(=O)(=O)Nc2cccc3c2O[C@H](CN(C)Cc2ccncc2)[C@@H](C)CN([C@H](C)CO)C3=O)cc1 | -2.0 | nt
COc1ccc(OCC(O)CNC(=O)Nc2ccccc2)cc1 (stereo not given) | -2.5 | nt
COC(=O)c1cc(S(=O)(=O)N2CCSC2)oc1C | 1.6 | -0.4
Cc1noc(C)c1S(=O)(=O)Nc1ccc2c(c1)C(=O)N([C@H](C)CO)C[C@H](C)[C@H](CN(C)S(C)(=O)=O)O2 | 2.1 | -0.4
COc1ccc(-c2cc(=O)oc3cc4occ(-c5cccc(OC)c5)c4cc23)cc1 | 1.7 | 0.3
Cc1ccc(C(=O)CSc2nnc(-c3cc(C(C)(C)C)nn3Cc3cccc(C)c3)o2)cc1 | 5.2 | 0.0
C[C@H]1CN([C@@H](C)CO)C(=O)c2cccc(NC(=O)C3CCOCC3)c2O[C@@H]1CN(C)C(=O)Nc1ccc(C(F)(F)F)cc1 | -1.4 | nt
COc1ccc(NC(=O)Nc2cccc3c2O[C@@H](CN(C)Cc2ccc(-c4ccccc4)cc2)[C@H](C)CN([C@H](C)CO)C3=O)cc1 | -12 | nt
O=C(c1nsnc1-c1ccccc1O)N1CCCC1 | 0.6 | 0.6
CNC[C@H]1Oc2ccc(NC(=O)c3ccncc3)cc2C(=O)N([C@H](C)CO)C[C@H]1C | -3.8 | 0.2
CCOC(=O)c1c(CSc2nc(C)ccc2C#N)oc2ccc(OC(C)=O)cc12 | 30 | 0.6
Cc1ccc(-n2nnc3c(SCC(=O)N4CCCC4)ncnc32)cc1 | -1.5 | -3.0
COC(=O)C1=C(C)NC(=O)CC1c1ccccc1C (stereo not given) | -0.2 | -0.3
C[C@@H]1CN([C@H](C)CO)C(=O)c2cc(NC(=O)CCN3CCOCC3)ccc2O[C@H]1CN(C)Cc1ccncc1 | 2.2 | -0.2
C[C@H](CO)N1C[C@H](C)[C@H](CN(C)Cc2ccc(-c3ccccc3)cc2)Oc2c(NC(=O)Nc3ccc(F)cc3)cccc2C1=O | -4.8 | nt
CCOC(=O)C1CCCN(C(=O)Cc2c(C(=O)O)[nH]c3ccccc23)C1 (stereo not given) | -0.9 | nt
O=C(CC(Sc1ccc(Br)cc1)C(=O)O)c1ccc(Cl)cc1 (stereo not given) | -12 | -0.9

# 4 compounds already listed, ordered by molecular weight, smallest number first.
SMILES | BJeLR viab HTS | A1 inh
O=C(c1nsnc1-c1ccccc1O)N1CCCC1 | 0.6 | 0.6
COc1ccc(-c2cc(=O)oc3cc4occ(-c5cccc(OC)c5)c4cc23)cc1 | 1.7 | 0.3
O=C(CC(Sc1ccc(Br)cc1)C(=O)O)c1ccc(Cl)cc1 (stereo not given) | -12 | -0.9
COc1ccc(NC(=O)Nc2cccc3c2O[C@@H](CN(C)Cc2ccc(-c4ccccc4)cc2)[C@H](C)CN([C@H](C)CO)C3=O)cc1 | -12 | nt

# The list continues.
SMILES | BJeLR viab HTS | A1 inh
CC1(C)OC(=O)C(=Cc2ccoc2)C(=O)O1 | 0.0 | 0.1
Cc1noc(C)c1NC(=O)N(C)C[C@@H]1Oc2c(NS(=O)(=O)c3ccccc3)cccc2C(=O)N([C@H](C)CO)C[C@H]1C | -10 | nt
COc1ccc(-c2nnc(SCc3ccc(F)cc3)n2-c2ccccc2)cc1 | 1.3 | -0.7
CCOC(=O)c1ccc(S(=O)(=O)N(C)C)cc1 | 2.4 | 0.1
C=C1C(O)CC2C(C(=O)OC)=CO[C@@H](O[C@@H]3O[C@H](CO)[C@@H](O)[C@H](O)[C@H]3O)C12 (stereo not given in full) | -7.8 | 1.1
COc1ccc(CN(C)C[C@H]2Oc3ccc(NS(C)(=O)=O)cc3C(=O)N([C@@H](C)CO)C[C@H]2C)cc1 | 2.2 | 0.0
Cc1ccc(S(=O)(=O)/N=C(/c2ccccc2)N(C)c2ccc(O)cc2)cc1 | 0.1 | 0.8
CCOC(=O)c1nc2ccccc2c(=O)n1/N=C/c1cc(Cl)cc(Cl)c1O | -3.1 | 0.0
CC(/C=N/N1CCN(c2ccccc2)CC1)=C\c1ccco1 | 38 | -6.6
C[C@H](CO)N1C[C@H](C)[C@H](CN(C)S(C)(=O)=O)Oc2c(NC(=O)NC3CCCCC3)cccc2C1=O | 4.5 | nt
CCN1CCN(c2oc(COc3ccccc3C)nc2C#N)CC1 | 2.7 | -0.2
CCc1ccc(C2NC(=O)NC3=C2C(=O)CCC3)cc1 (stereo not given) | -3.6 | nt
C[C@H]1CN([C@@H](C)CO)C(=O)c2cc(NC(=O)C3CCCCC3)ccc2O[C@@H]1CN(C)S(=O)(=O)c1ccc(Cl)cc1 | -0.3 | 0.0
C[C@@H]1CN([C@H](C)CO)C(=O)c2cc(NC(=O)Cn3cnnn3)ccc2O[C@H]1CN(C)Cc1ccccc1 | 1.3 | -0.1
C[C@H](CO)N1C[C@H](C)[C@H](CN(C)Cc2ccc(C(=O)Nc3ccccc3N)cc2)Oc2ccc(NS(=O)(=O)c3ccc(F)cc3)cc2C1=O | 12 | nt

# Of the compounds above, these have a COOH group:
SMILES | BJeLR viab HTS | A1 inh
C[C@@H]1CN([C@@H](C)CO)C(=O)c2cc(N(C)C)ccc2O[C@H]1CN(C)Cc1ccc(C(=O)O)cc1 | -1.1 | -0.6
CCOC(=O)C1CCCN(C(=O)Cc2c(C(=O)O)[nH]c3ccccc23)C1 (stereo not given) | -0.9 | nt
O=C(CC(Sc1ccc(Br)cc1)C(=O)O)c1ccc(Cl)cc1 (stereo not given) | -12 | -0.9

# Carrying on:
SMILES | BJeLR viab HTS | A1 inh
Cc1noc(C)c1NC(=O)Nc1cccc2c1O[C@@H](CN(C)Cc1ccncc1)[C@@H](C)CN([C@H](C)CO)C2=O | -7.6 | nt
O=C(c1cccc2ccccc12)N1CCc2ccccc21 | 1.8 | 0.0
Cc1ccc(S(=O)(=O)N(C)C[C@H]2Oc3ccc(NC(=O)Nc4cccc5ccccc45)cc3C(=O)N([C@@H](C)CO)C[C@@H]2C)cc1 | -4.1 | 1.5
O=c1cc(-c2ccc3ccccc3c2)[nH][nH]1 | -4.6 | -0.9
CC1OC(OC2C(OC3C(O[C@H]4CC[C@@]5(C)C(CC[C@]6(C)C5CC=C5C7CC(C)(C)CC(O)[C@]7(C)CC[C@]56C)C4(C)C)OC(C(=O)O)C(O)C3O)OCC(O)C2O)C(O)C(O)C1O (stereo not given in full) | -6.1 | 0.0
COc1ccc(S(=O)(=O)Nc2ccc3c(c2)C(=O)N([C@@H](C)CO)C[C@H](C)[C@@H](CN(C)C(=O)Nc2c(C)noc2C)O3)cc1 | 0.6 | 0.4
C[C@@H]1CN([C@H](C)CO)C(=O)c2cc(NC(=O)CCC(F)(F)F)ccc2O[C@H]1CN(C)Cc1ccc2c(c1)OCO2 | -3.9 | -0.7
C[C@@H]1CN([C@H](C)CO)C(=O)c2cc(NC(=O)Nc3ccccc3)ccc2O[C@@H]1CN(C)Cc1ccc(Cl)c(Cl)c1 | 0.7 | -0.2
Cc1ccc(S(=O)(=O)Nc2cccc3c2O[C@H](CN(C)S(=O)(=O)c2ccc(F)cc2)[C@@H](C)CN([C@H](C)CO)C3=O)cc1 | 4.3 | nt
COc1ccc(NC(=O)Nc2ccc3c(c2)C(=O)N([C@@H](C)CO)C[C@H](C)[C@@H](CN(C)Cc2ccccc2)O3)cc1 | -3.0 | 0.4
C[C@H]1CN([C@@H](C)CO)C(=O)c2cccc(N(C)C)c2O[C@H]1CN(C)C | -5.5 | nt
